Compound activity deposited in PubChem BioAssay by ICCB-Longwood Screening Facility, Harvard Medical School.
CapD inh – CapD enzyme inhibition. purified CapD enzyme, fluorescence intensity read-out; stronger effect = lower value; some hits fall short of the stated cut. hit rate 0.23% among 140,000. z-score (test concentration not listed);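 active means z-score under -4 in either of two replicates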;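 further: stock transfer was 100 nL into about 40 µL; score is relative to mean and spread of the plate; one replicate is shown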
AID504770 – growth inhibitors of E. coli YBA685 in a screen for V. cholerae RctB (chromosome II replication) inhibitors; E. coli YBA685 rctB-dependent plasmid, OD600 growth, 3 h; stronger effect = lower value; z-score (concentration not given with the values); hit rate 0.27% among 130,000; AID 504770;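 active means z-score under -2 on both plates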;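 further: wells of about 30 µL received 100 nL stock; score is relative to mean and SD of the test wells; the first replicate is given; strong numbers were not always called active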
The depositor's hits bear a star; x = not tested or not shown; & = joins results of further samples. Some of the compounds tested; rates above refer to the full screens.

#1 O=C(Cn1nc(Cc2ccncc2)c2ccccc2c1=O)NCCc1ccc(Cl)cc1
#2 CSc1sc(-c2nc(C(C)(C)C)cs2)c2c1C(=O)CCC2
#3 C=CCn1c(SCc2ccccc2)nc(-c2ccccc2)c1-c1ccccc1
#4 Fc1ccccc1-c1nc(-c2ccccc2)c(-c2ccc(Sc3ccccc3)cc2)[nH]1
#5 CC(OC(=O)Cn1ccc(C(F)(F)F)n1)c1nc2ccccc2c(=O)[nH]1 (stereo not given)
#6 Cc1ccc(N2C(=O)C3C(c4cccc(Cl)c4)OC4(C(=O)c5ccccc5C4=O)C3C2=O)cc1 (stereo not given)
#7 O=c1[nH]c2ccccc2nc1C(=S)N1CCOCC1
#8 NC(=S)N/N=C/c1nc2ccccc2n1Cc1ccccc1
assay / compound,1,2,3,4,5,6,7,8
AID504770,0.5,-0.4,x,x,-3,x,-1.45,-0.5
CapD inh,0.38,-0.4,0.965,33.5,x,0.28,-0.645,-2.02

By substructure: the entries above containing an aryl thioether with sulfur outside any ring (three)
#2 CSc1sc(-c2nc(C(C)(C)C)cs2)c2c1C(=O)CCC2
#3 C=CCn1c(SCc2ccccc2)nc(-c2ccccc2)c1-c1ccccc1
#4 Fc1ccccc1-c1nc(-c2ccccc2)c(-c2ccc(Sc3ccccc3)cc2)[nH]1
assay / compound,2,3,4
AID504770,-0.4,x,x
CapD inh,-0.4,0.965,33.5

(listing goes on)
#9 O=C(O)CC1C(=O)NCCN1C1Cc2ccccc2C1 (stereo not given)
#10 CCCN(C)S(=O)(=O)c1ccc(I)cc1
#11 CCOC(=O)C(=O)N1c2cc(C)ccc2-c2c(ssc2=S)C1(C)C
#12 NCCC1CCCO1 (stereo not given)
#13 Cc1cccc(C)c1NC(=O)CNc1ccccc1
#14 O=C(O)CSCC(=O)N1CCc2c([nH]c3ccccc23)C1C(F)(F)F (stereo not given)
#15 O=C(Nc1ccc(S(=O)(=O)c2ccc(NC(=O)c3ccco3)cc2)cc1)c1ccco1
#16 O=S(=O)(c1ccc(F)cc1)N1CCN(S(=O)(=O)c2cccs2)CC1
assay / compound,9,10,11,12,13,14,15,16
AID504770,-1.4,0.2,x,1.55,-0.6,x,0.7,-0.75
CapD inh,-0.485,-0.32,-0.1,x,0.2,1.31,x,0.46

#17 c1ccc2c(-c3cn[nH]c3-c3ccncc3)ccnc2c1
#18 O=C(c1ccc(F)cc1)N1CCCc2ccccc21
#19 Cc1cc(C)c(C(=O)O)c(CC(C)(C)C(=O)N2CCCN(Cc3ccc(Cl)c(Cl)c3)CC2)c1
#20 N#Cc1ccc(COC(=O)CCC(=O)c2ccc(F)cc2)cc1
#21 CCCCOc1cccc(OCCCC)c1Nc1cc(C)on1
#22 Cn1c(CSc2cccs2)n[nH]c1=S
#23 CCCCN(C)S(=O)(=O)c1ccc2c(c1)CC(C)N2C(C)=O (stereo not given)
#24 C/C(N)=C(/C#N)C(=O)CSc1nnc(-c2cccnc2)n1C1CCCCC1C (stereo not given)
assay / compound,17,18,19,20,21,22,23,24
AID504770,x,1.75,x,-1.25,0.15,x,-0.45,0.5
CapD inh,1.55,-0.065,-0.35,0.47,0.785,0.025,0.295,x

#25 c1coc(-c2cc(-c3nc4c5ccccc5ncn4n3)n[nH]2)c1
#26 COc1ccc(CCNC(=S)Nc2cccc(C(F)(F)F)c2)cc1OC
#27 O=C1OCCC1Sc1nc(-c2ccccc2)cs1 (stereo not given)
#28 O=S(=O)(c1ccc(OCC(O)CN2CCCCC2)cc1)N1CCOCC1 (stereo not given)
#29 CCOC(=O)c1c(NC(=O)COc2ccc(Cl)cc2)sc(C(=O)Nc2ccccc2F)c1C
#30 CC1SC(C)C(=O)N(CC(=O)Nc2ccccc2)C1=O (stereo not given)
#31 NC(=O)C1CCN(C(=O)NC2CC(=O)N(c3ccc(Cl)cc3)C2)CC1 (stereo not given)
#32 O=C(CC(c1ccccc1)c1cc(Cl)ccc1O)NCCCN1CCOCC1 (stereo not given)
assay / compound,25,26,27,28,29,30,31,32
AID504770,-0.05,x,-0.3,0.85,x,-0.05,0.05,-0.2
CapD inh,x,-0.425,-0.4,x,0.59,0.5,x,0.095

#33 CCn1c2ccccc2c2nnc(SCC(=O)Nc3nccs3)nc21
#34 O=c1ccsn1Cc1ccccc1
#35 COc1cccc(NC(=O)c2cc3cc4ccc(C)cc4nc3o2)c1
#36 Cn1cc(/C=C(/C#N)c2ccc(C(=O)O)cc2)c2ccccc21
#37 COc1ccc(-c2nc(-c3cccnc3)ncc2N=Nc2ccc(F)cc2)cc1
#38 CCn1c(C(=O)O)c(CC(=O)Nc2cc(Cl)c(OC)cc2OC)c2ccccc21
#39 CCCCCC1/C(=N/OC(C)=O)CCC1CC(=O)OC (stereo not given)
#40 N#CCC(=O)N/N=C/c1ccc(OC2CSC2)cc1
assay / compound,33,34,35,36,37,38,39,40
AID504770,-0.55,-9.15*,-0.3,0.7,x,x,0.1,-0.55
CapD inh,-0.085,x,2.05,-3.12,0.32,-0.345,x,x

#41 CCCN1C(=O)/C(=N\OCC(=O)N2N=C(c3ccc(Cl)cc3)CC2c2ccco2)c2ccccc21 (stereo not given)
#42 FC(F)(F)c1ccc(-c2ncc(-c3cnc4ccccc4n3)c(-c3ccc(C(F)(F)F)nc3)n2)cn1
#43 O=C(O)CSc1ccc(C(F)(F)F)cn1
#44 CCC(=O)N1CCN(c2ccc(N3CCOCC3)nn2)CC1
#45 O=C(Nc1ncc(Cc2ccc(F)cc2)s1)C1CCCO1 (stereo not given)
#46 O=C(c1ccc(F)cc1)n1cc(Cl)cn1
#47 COc1ccc2occ(C(=O)c3oc4ccccc4c3N)c2c1
#48 COCCn1cnc2sc(C(=O)N3CCC(C)CC3)c(C)c2c1=O
assay / compound,41,42,43,44,45,46,47,48
AID504770,-0.5,x,x,-0.4,x,-0.45,x,x
CapD inh,x,-0.405,-0.39,x,0.025,-0.26,3.84,5.98

Given with bars between the fields: entries from further up
item | molecule | AID504770 | CapD inh
14 | O=C(O)CSCC(=O)N1CCc2c([nH]c3ccccc23)C1C(F)(F)F (stereo not given) | x | 1.31
22 | Cn1c(CSc2cccs2)n[nH]c1=S | x | 0.025

Other structures:
#49 CN(C)c1ccc(-c2n[nH]c3c2C(=O)CCC3)cc1
#50 Cn1nnnc1SCC(=O)c1ccc(Br)s1
#51 CCCNC(=O)C1=C(C)C(=O)OC12CCN(S(C)(=O)=O)CC2
#52 CCN(CC)c1ccc2c(c1)oc(=O)c1c(Cl)cc(=O)oc12
#53 Cc1cccc2nc(-c3ccco3)oc(=O)c12
#54 COc1cc(OC)c(NC(=O)c2c(C)nn(-c3ccccc3)c2-n2cccc2)cc1Cl
#55 Cc1cc(NC(=O)COC(=O)C2CSC3(C)CCC(=O)N23)no1 (stereo not given)
#56 COc1cc(Br)c(CN2CCN(C(=O)OCCc3ccccc3C)CC2)cc1OC
assay / compound,49,50,51,52,53,54,55,56
AID504770,0.45,-0.75,-0.65,2,-0.55,-0.4,-0.4,x
CapD inh,59.1,x,1.17,1.63,-0.41,-0.295,x,0.5

#57 CCSc1nc2c(c(=O)n1C)C1(CCCCC1)Cc1ccccc1-2
#58 COCCNc1nc(SCc2ccccc2Cl)nc2ccccc12
#59 COc1ccc(CCNC(=O)CCn2c(SCC(=O)Nc3ccc(C)cc3)nc3ccccc3c2=O)cc1OC
#60 COc1ccc(C2(O)CN(c3ccccc3C)C3=[N+]2CCCS3)cc1OC (stereo not given)
#61 Cc1ccc2c(CC(=O)NCC(=O)Nc3c(C)cccc3C)coc2c1
#62 C/C(=N\O)c1oc2ccc3c(C)cc(=O)oc3c2c1-c1ccccc1
#63 c1ccc(CC2COC(c3cccn3Cc3ccccc3)=N2)cc1 (stereo not given)
#64 CN1CCOCCOCCOCC1
assay / compound,57,58,59,60,61,62,63,64
AID504770,-0.55,x,x,x,1.45,x,-0.3,2
CapD inh,1.65,0.325,0.815,0.24,x,3.22,0.495,-0.15

Structural class, the compounds so far containing bromine (2)
#50 Cn1nnnc1SCC(=O)c1ccc(Br)s1
#56 COc1cc(Br)c(CN2CCN(C(=O)OCCc3ccccc3C)CC2)cc1OC
assay / compound,50,56
AID504770,-0.75,x
CapD inh,x,0.5

Later entries:
#65 CCCn1c(C)cc(C(=O)CN(C)S(=O)(=O)c2ccc(F)cc2)c1C
#66 COc1ccc(NC(=O)C2=C(C)N(Cc3ccccc3)C(=O)CC2)cc1
#67 CC(C)(C)C1(O)CC(c2ccccc2)=NO1 (stereo not given)
#68 O=C1CSC(c2cn(-c3ccccc3)nc2-c2cccs2)N1Cc1ccccc1 (stereo not given)
#69 CCOC(=O)c1[nH]c(CBr)c(C(=O)OCC)c1C
#70 Oc1ccc(CCc2n[nH]c(=S)n2-c2ccc(F)cc2)cc1
#71 CN(CC(=O)Nc1ccc(N2CCOCC2)cc1)c1nc(-c2ccccc2)nc2ccccc12
#72 COC(=O)c1ccc(NS(=O)(=O)c2cccc3cccnc23)cc1
assay / compound,65,66,67,68,69,70,71,72
AID504770,-1.3,x,-1.05,x,-0.65,x,-0.65,0.85
CapD inh,x,-0.25,0.075,-0.395,-0.23,-0.125,x,0.355

#73 O=C(CC(NCCC1=CCCCC1)C(=O)O)Nc1ccccc1 (stereo not given)
#74 O=C(OCCc1c[nH]c2ccccc12)N1CCN(c2ccncc2)CC1
#75 O=C(Cn1nc(-c2ccccc2)c2ccccc2c1=O)Nc1cccnc1
#76 Fc1ccc(OC2OCCOC2Oc2ccc(F)cc2)cc1 (stereo not given)
#77 CC1=C(CC(=O)O)c2cc(F)ccc2/C1=C\c1ccc(S(C)=O)cc1 (stereo not given)
#78 CCC(C)NS(=O)(=O)c1c[nH]c(C(=O)OC)c1 (stereo not given)
#79 O=C(Nc1ccc2c(c1)OCCO2)C(c1ccccc1)c1ccccc1
#80 c1ccc(NCn2nnc3ccccc32)cc1
assay / compound,73,74,75,76,77,78,79,80
AID504770,-0.5,x,2,0.55,-0.25,-0.8,x,0.35
CapD inh,0.305,-0.51,-0.765,x,-0.08,-0.74,-0.255,0.63

#81 CCOC(=O)C1=C(C)OC(N)=C(C#N)C1c1ccccc1OC (stereo not given)
#82 CCOC(=O)c1c(C)c(C(=O)Nc2ccc(C(C)C)cc2)c(C)n1C
#83 CCCN(CCC)S(=O)(=O)c1ccc(C(=O)Nc2ccc3nc(NC(=O)c4ccc(S(=O)(=O)N(CCC)CCC)cc4)sc3c2)cc1
#84 Cc1noc(C(F)(F)F)c1C(=O)O/N=C(\N)c1ccc(C(F)(F)F)cc1
#85 COCCCNc1nc2ccccc2[nH]c1=O
#86 COc1ccc(OC)c(N=C2SCCCN2C(=O)c2cc(=O)[nH]c3ccccc23)c1
#87 Cc1ccc(-n2c(=O)c3c4c(sc3n(CC(N)=O)c2=O)CCCCC4)cc1C
#88 O=C1CSC(c2ccc3c(c2)OCO3)N1c1ccc(F)cc1 (stereo not given)
assay / compound,81,82,83,84,85,86,87,88
AID504770,x,0.15,x,-0.6,-0.45,0.1,-0.1,x
CapD inh,4.38,-0.69,0.425,0.615,x,x,-0.425,0.92

#89 O=C(NC1CCN(Cc2cc3c(cc2Cl)OCO3)C1)OCc1ccc(-c2ccccc2)cc1 (stereo not given)
#90 Cc1cc(C)c2c(CC(=O)NN3CCN(C)CC3)coc2c1
#91 O=C(C(Cc1ccccc1)n1cccc1)N1CCCC1 (stereo not given)
#92 C=CCn1c(COc2ccc(OC)cc2)nnc1SC(C(=O)NC(=O)NC)c1ccccc1 (stereo not given)
#93 COc1ccc(OCCN2C(=O)c3c(C(C)C)nc4ccccc4c3C2=O)cc1
#94 COc1ccc(NC(=O)C(c2ccccn2)N(C(C)=O)c2ccc(C)cc2)cc1 (stereo not given)
#95 CC(C)c1cccc2c1OC(C(C)C)C(=S)N2CC(=O)O (stereo not given)
#96 C=CCn1c(SCC(=O)NCCO)nc2sc3c(c2c1=O)CCCC3
assay / compound,89,90,91,92,93,94,95,96
AID504770,x,-0.5,-0.15,-0.3,x,0.1,-0.3,x
CapD inh,0.145,0.62,-0.055,x,0.045,0.305,-1.31,0.03

Grouped by structure: those above containing a tert-butyl group.
#2 CSc1sc(-c2nc(C(C)(C)C)cs2)c2c1C(=O)CCC2
#67 CC(C)(C)C1(O)CC(c2ccccc2)=NO1 (stereo not given)
assay / compound,2,67
AID504770,-0.4,-1.05
CapD inh,-0.4,0.075

Next section:
#97 COc1ccc(-c2nc(CSCC(=O)N(C)Cc3ccccc3)c(C)o2)cc1OC
#98 O=S(=O)(c1ccccc1F)N1CCC(O)C1 (stereo not given)
#99 COC(=O)C1=C(C)NC(C)=C(C(=O)OC)C1c1cn(-c2ccccc2)nc1-c1ccc(OC)c(Cl)c1
#100 COC(=O)C1=C(C)NC(C)=C(C(=O)OC)C1c1ccccc1[N+](=O)[O-]
#101 Cc1ccc(N(C(C)C(=O)N(C)C)S(C)(=O)=O)cc1 (stereo not given)
assay / compound,97,98,99,100,101
AID504770,-0.65,x,x,0.75,-0.6
CapD inh,0.57,0.155,-0.68,-0.66&0.425,0.035
